Screens deposited in PubChem by Southern Research Institute.
total CFTR – compounds raising F508del-CFTR protein level – cell-based, HeLa F508del-CFTR, immunofluorescence, viability, primary screen (AID 1224863). 0.1% of 10,000 active. calls, or highest fold increase where a dose series was run. HeLa F508del-CFTR, immunofluorescence total CFTR, 24 h; by the record results were divided by relative cell number; some inactives read as strong as hits; in the data nearly all actives have a first-pass fold increase above 1.5; a few of its hits are not listed in these tables;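 also: total CFTR protein by anti-CFTR immunofluorescence in fixed cells; first pass at 25 µM or 10 µg/mL by library and series up to twice that; 1 = untreated cells; first-pass hits also needed half or more of the cells alive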
total CFTR fold 25 µM – further read-out of total CFTR, marked with its call; fold increase; measured here: primary screen single dose 25 uM; library dosed in µM
total CFTR fold 10 ug/mL – also measured in total CFTR; calls as there; fold increase; measured here: primary screen 10 ug/mL
total CFTR viability 25 µM – further read-out of total CFTR, marked with its call; viability, %; measured here: primary viability 25 uM; library dosed in µM;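 0% = killed and 100% = untreated cells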
total CFTR viability 10 ug/mL – second read-out of total CFTR, no call of its own (marks repeat the call); viability, %; measured here: primary viability 10 ug/mL;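 0% = killed and 100% = untreated cells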
Numbers without * were called inactive; i = inactive; nt = no result given; & = joins results of further samples.

SMILES	total CFTR	total CFTR fold 10 ug/mL	total CFTR viability 10 ug/mL	others
C=CCOc1ccc(/C(O)=C2/C(=O)C(=O)N(CCCN(C)C)C2c2cccc(Br)c2)cc1 (centres undefined)	i	1.1	91
NC(=O)c1c(NC(=O)c2cc(Cl)c3c(c2)OCCO3)sc2c1CCC2	i	1	104
C=CCn1c(C)cc(C(=O)CN2C(=O)NC(C)(C)C2=O)c1C	i	1	84
CCOc1cc2c(cc1OCC)CN(Cn1ncc(Cl)c(Cl)c1=O)CC2	i	0.98	94
CC(=O)N[C@@H](CS)C(=O)O	i	nt	nt	total CFTR fold 25 µM=1.1&1;total CFTR viability 25 µM=109&93
CCCCC[C@H](O)/C=C/[C@@H]1[C@@H](C/C=C\CCCC(=O)O)[C@@H](O)C[C@H]1O	i	nt	nt	total CFTR fold 25 µM=1.1;total CFTR viability 25 µM=89
CN(C1CCCCC1)S(=O)(=O)N1CCN(C(=O)Cc2cccs2)CC1	i	0.9	88
Cc1cc(CSc2ncc(-c3ccc(Cl)cc3)o2)no1	i	0.9	94
O=c1cc(CN2CCOCC2)nc2ccccn12	i	1.1	109
Cc1cc(NC(=O)C(C)SCCC23CC4CC(CC(C4)C2)C3)no1 (centres undefined)	i	0.81	75
CN(C)C1(CNc2ccc3nnnn3n2)CCCCCC1	i	1.1	98
O=C(OCn1nnc2ccccc2c1=O)c1ccc(Br)s1	i	1.1	105
C1CCN2C[C@@H]3C[C@H](CN4CCCC[C@@H]34)[C@H]2C1	i	nt	nt	total CFTR fold 25 µM=1;total CFTR viability 25 µM=108
COC(=O)CCCN(C)C(=O)c1[nH]c2c(c1C)C(=O)CCC2	i	1.1	100
O=S(=O)(c1cccc(Br)c1)N1CCN(Cn2nnc(-c3ccccc3)n2)CC1	i	0.98	91
O=C1C2CCCCC2C(=O)N1CN(Cc1ccc(C(F)(F)F)cc1)C1CC1 (centres undefined)	i	1	97
Cc1nccnc1N1CCCCC1	i	nt	nt	total CFTR fold 25 µM=1.1;total CFTR viability 25 µM=77
CC(C)CN(C(=O)CN(C)C(=O)c1ccc(Br)o1)c1c(N)n(CC(C)C)c(=O)[nH]c1=O	i	1.2	96
C[C@@H]1CN(c2c(F)c(N)c3c(=O)c(C(=O)O)cn(C4CC4)c3c2F)C[C@H](C)N1	i	nt	nt	total CFTR fold 25 µM=0.98;total CFTR viability 25 µM=88
CC(N)c1ccc2[nH]c(=O)[nH]c2c1 (centres undefined)	i	1.1	88
COc1ccc(OC)c(-c2csc(-c3ccccc3OC)n2)c1	i	1	113
O=C(NCCNc1cnccn1)C1CCCC1	i	1.1	105
CC(c1cc2ccccc2o1)N(C)S(=O)(=O)c1c(F)cccc1F (centres undefined)	i	0.88	94
Cc1ccc(C(=O)OC2CC(C)OC2=O)cc1[N+](=O)[O-] (centres undefined)	i	1	98
O=[N+]([O-])c1cc(C(F)(F)F)c(Cl)cc1N1CCN(C(c2ccccc2)c2ccccc2)CC1	i	1.1	84
Cc1ccc(S(=O)(=O)NC(C)c2ccc3c(c2)OCO3)s1 (centres undefined)	i	1.1	95
Cc1ccc(S(C)(=O)=O)cc1S(=O)(=O)N1CCNCC1	i	1.1	103
C[C@]12CCC3c4ccc(OC(=O)c5ccccc5)cc4CCC3C1CC[C@@H]2O (some centres undefined)	i	nt	nt	total CFTR fold 25 µM=0.94;total CFTR viability 25 µM=73
Cc1sc2ncnc(N3CCN(C(=O)OC(C)(C)C)CC3)c2c1C	i	0.96	90
O=C(c1ccccc1)c1ccc(OCC(=O)C23CC4CC(CC(C4)C2)C3)cc1	i	0.9	85
Cc1cc(C(C)(C)C)c(O)c(C(C)(C)C)c1	i	nt	nt	total CFTR fold 25 µM=1.1;total CFTR viability 25 µM=89
CC(=O)OCC(=O)[C@@]12N=C(C)O[C@@H]1CC1C3CCC4=CC(=O)C=C[C@]4(C)C3[C@@H](O)C[C@@]12C (some centres undefined)	i	nt	nt	total CFTR fold 25 µM=1.1;total CFTR viability 25 µM=75
O=C(Nc1ccc(N2CCCC2)nc1)C1CCCO1 (centres undefined)	i	1	94
NC[C@@H]1CC[C@@H](N)[C@@H](O[C@H]2[C@H](O)[C@@H](O[C@H]3O[C@H](CO)[C@@H](O)[C@H](N)[C@H]3O)[C@H](N)C[C@@H]2N)O1	i	nt	nt	total CFTR fold 25 µM=1;total CFTR viability 25 µM=88
Nc1nc(COC(=O)c2cccnc2SC(F)F)nc(Nc2ccccc2)n1	i	1	77
Nc1cnn(CC(=O)NC2CC2)c1	i	0.82	74
CCOCCCn1c(SCC(=O)NCC(C)C)nc2sc(C)c(C)c2c1=O	i	0.96	89
O=C(NC1CCN(S(=O)(=O)N2CCCCCC2)CC1)C1CC1	i	1.1	87
CC(C)C(NC(=O)CC1CC2CCC1C2)c1cccs1 (centres undefined)	i	0.99	110
COc1ccc(S(=O)(=O)N2CCCC(CNS(C)(=O)=O)C2)cc1 (centres undefined)	i	1	96
Clc1ccc(C2=NNC(=NCC3CCCO3)SC2)cc1Cl (centres undefined)	i	0.96	81
Cc1cc(-n2c(C)cc(-c3csc(Cc4csc(C)n4)n3)c2C)no1	i	0.9	84
Cc1nc2n(c(=O)c1CCN1CCC(c3noc4cc(F)ccc34)CC1)CCC[C@@H]2O	i	nt	nt	total CFTR fold 25 µM=0.93;total CFTR viability 25 µM=98
CS(=O)(=O)c1ccc2nnn(OCc3ccc(F)cc3Cl)c2c1	i	1	96
O=S(=O)(NCc1ccc(N2CCOCC2)nc1)c1cc(Br)ccc1Br	i	1.1	107
Cc1ccc(NS(=O)(=O)c2cc(C(F)(F)F)cc(C(F)(F)F)c2)cc1S(=O)(=O)N1CCOCC1	i	0.84	104
CCOC(=O)c1oc2ccccc2c1CN1CCN(S(=O)(=O)N(CC)CC)CC1	i	0.94	90
CS(=O)(=O)c1ccc(Oc2ccc3c(c2)OCCO3)c([N+](=O)[O-])c1	i	0.98	92
CC1=C(C(=O)O)N2C(=O)[C@@H](NC(=O)[C@H](N)C3=CCC=CC3)C2SC1 (some centres undefined)	i	nt	nt	total CFTR fold 25 µM=1;total CFTR viability 25 µM=84
Cn1ccc(NC(=O)CCCN2C(=O)NC3(CCCC3)C2=O)n1	i	1.1	92

(further entries)
SMILES	total CFTR	total CFTR fold 10 ug/mL	total CFTR viability 10 ug/mL	others
Nc1nc2c(ncn2COC(CO)CO)c(=O)[nH]1	i	nt	nt	total CFTR fold 25 µM=1.1&1.1;total CFTR viability 25 µM=74&93
CC(=O)NS(=O)(=O)c1ccc(N)cc1	i	nt	nt	total CFTR fold 25 µM=1.1;total CFTR viability 25 µM=79
CS(=O)(=O)N1CCN(Cc2sc3ccccc3c2Cl)CC1	i	1	85
CC1CCC2(CC1)Nc1ccccc1C(=O)N2c1ccc2c(c1)OCCO2 (centres undefined)	i	0.97	97
O=[N+]([O-])c1cc(Cl)ccc1N1CCN(Cn2nc(-c3cccnc3)n(C3CC3)c2=S)CC1	i	0.99	104
Cc1nnc(CSc2nc3cc(F)c(F)cc3[nH]2)o1	i	0.98	100
CC(C)CNC(=O)CN1C(=O)NC2(CCCCCCC2)C1=O	i	1	97
COc1cccc(-c2nc(-c3nc4ccccc4s3)cs2)c1OC	i	0.99	91
CS(=O)(=O)c1ccc(S(=O)(=O)N(Cc2c(F)cccc2Cl)C2CC2)cc1	i	0.98	89
CCCCNC(=O)CN1CCN(Cn2ncn(C3CC3)c2=S)CC1	i	0.95	98
Cn1cnc2c1c(=O)n(CCCSc1nnc(-c3ccccc3)o1)c(=O)n2C	i	1.1	98
O=C1CNC(=O)N1CCSCc1c(Cl)cccc1Cl	i	1.2	70
COc1ccc(-c2cc(CSc3nnc(C)s3)on2)cc1	i	0.94	79
CCCCN(CC)CC(O)COc1ccc(C(C)(C)C)cc1C (centres undefined)	i	0.98	93
O=S(=O)(c1ccc(N2CCN(S(=O)(=O)c3ccccc3)CC2)nc1)N1CCCC1	i	1	115
Cc1cn([C@H]2C=C[C@@H](CO)O2)c(=O)[nH]c1=O	i	nt	nt	total CFTR fold 25 µM=1;total CFTR viability 25 µM=89
COc1ccc(C)cc1-n1nnnc1SCCOc1ccc(C)cc1	i	0.91	92
CCOc1nc2cccc(C(=O)O)c2n1Cc1ccc(-c2ccccc2-c2nn[nH]n2)cc1	i	nt	nt	total CFTR fold 25 µM=1.1&1.1;total CFTR viability 25 µM=96&118
COc1cc(NS(=O)(=O)c2ccc(N)cc2)nc(OC)n1	i	nt	nt	total CFTR fold 25 µM=0.98&1;total CFTR viability 25 µM=98&107
CCC1c2ccsc2CCN1CC(=O)Nc1sccc1C#N (centres undefined)	i	0.98	86
CC1CN(Cc2nc3ccsc3c(=O)[nH]2)CCO1 (centres undefined)	i	1	96
O=S(=O)(c1ccc(Sc2nc3ccccc3s2)nc1)N1CCOCC1	i	0.92	92
CCOC(=O)N1CCN(C(=O)Nc2cc3c(cc2Br)OCCO3)CC1	i	1	91
CCC(C)(C)C1CCC2(CC1)NC(=O)N(CN1CCOC(C)C1)C2=O (centres undefined)	i	0.99	95
O=C1/C(=C/c2ccc(Br)cc2F)Cc2ccccc21	i	1.1	81
O=C1NC2(CCc3ccccc32)C(=O)N1Cc1nc(-c2ccco2)no1 (centres undefined)	i	0.96	96
CC(=O)[C@@]1(O)CCC2C3C=C(Cl)C4=CC(=O)[C@@H]5CC5[C@]4(C)C3CC[C@@]21C (some centres undefined)	i	nt	nt	total CFTR fold 25 µM=1;total CFTR viability 25 µM=87
Cc1nn(-c2ccccc2)c2nc(-c3ccccc3)c(-c3nc4ccccc4[nH]3)c(-c3ccncc3)c12	i	0.96	86
N=C1C(c2nc3ccccc3[nH]2)=C(O)CN1CCc1c[nH]c2ccccc12	i	0.97	85
Cn1ccnc1CC#N	i	1.1	88
Cc1nnc(SCCC23CC4CC(CC(C4)C2)C3)n1Cc1ccccc1	i	1.1	99
O=C(COC(=O)C1(c2ccccc2)CCCC1)c1ccc2c(c1)CCC2	i	0.88	88
CCC1CCC2(CC1)NC(=O)N(CC(=O)NC1CCCCCCC1)C2=O (centres undefined)	i	0.94	97
C=CCNC(=O)NC(=O)CSc1nc2ccsc2c(=O)n1CC=C	i	0.99	91
CN(Cc1ccc(C(F)(F)F)cc1)CN1C(=O)NC(c2ccccc2)(c2ccccc2)C1=O	i	1	93
Nc1nccnc1C(=O)N1CCN(C(=O)N2CCCCC2)CC1	i	1	101
CN1N=C(C(=O)Nc2ccc3c(c2)OC2(CCCC2)O3)CCC1=O	i	0.97	92
O=C1O[C@@H](CO)[C@H](O)[C@@H](O)[C@@H]1O	i	nt	nt	total CFTR fold 25 µM=1.2;total CFTR viability 25 µM=98
CN=C(NC#N)NCCSCc1csc(N=C(N)N)n1	i	nt	nt	total CFTR fold 25 µM=1.1;total CFTR viability 25 µM=109
COc1cc([N+](=O)[O-])c(OC)cc1Oc1ccc(F)cc1	i	0.94	92
O=C1CN(c2ccc(NC(=O)N3CCCC(C(F)(F)F)C3)cn2)CCN1 (centres undefined)	i	0.94	105
CC(C)(C)c1cnc(CN2CCN(S(=O)(=O)c3ccc(C(N)=O)o3)CC2)o1	i	1	98
COC(=O)CCCCCCNC(=O)c1cc(Cl)c[nH]1	i	1	103
CCOc1c(Br)cc(CNC(C)C2CCCO2)cc1Br (centres undefined)	i	1.1	99
CCNc1nnc(SCc2ccc(S(=O)(=O)c3ccc(C)cc3)cc2)s1	i	0.87	83
CC12CCC3c4ccc(O)cc4CCC3C1C[C@H](O)[C@@H]2O (some centres undefined)	i	nt	nt	total CFTR fold 25 µM=1.1;total CFTR viability 25 µM=85
CONC(=O)c1ccc2c(c1)NC(=O)CS2	i	0.96	84
CC(=O)Oc1cc2c(s1)CCN(C(C(=O)C1CC1)c1ccccc1F)C2 (centres undefined)	i	nt	nt	total CFTR fold 25 µM=1.1;total CFTR viability 25 µM=78
O=C(COCC(F)(F)F)Nc1ncn[nH]1	i	0.96	94

Only part of the results is shown (hit frequency here may not be typical).
